Bioassay records deposited in PubChem by The Scripps Research Institute Molecular Screening Center.
OX1R antag-1: OX1R (HCRTR1) antagonists, primary screen, fluorescence, CHO/OX1R cells, Fluo-8 calcium, orexin A | Fluo-8 calcium fluorescence | inhibition, % at 5 µM | 330,000 tested, 0.43% active | Orexin/Hypocretin receptor type 1 (Homo sapiens), O43613 | AID 434989, 2010;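 active means inhibition above its plate's threshold, mean inhibition of all tested compounds on the plate plus 3 SD, cut at about 37% in these data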;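 further: 0% = orexin A challenge wells and 100% = SB-334867-A antagonist wells; not every result past the cut was called active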
Target sequence (O43613 whole entry, looked up): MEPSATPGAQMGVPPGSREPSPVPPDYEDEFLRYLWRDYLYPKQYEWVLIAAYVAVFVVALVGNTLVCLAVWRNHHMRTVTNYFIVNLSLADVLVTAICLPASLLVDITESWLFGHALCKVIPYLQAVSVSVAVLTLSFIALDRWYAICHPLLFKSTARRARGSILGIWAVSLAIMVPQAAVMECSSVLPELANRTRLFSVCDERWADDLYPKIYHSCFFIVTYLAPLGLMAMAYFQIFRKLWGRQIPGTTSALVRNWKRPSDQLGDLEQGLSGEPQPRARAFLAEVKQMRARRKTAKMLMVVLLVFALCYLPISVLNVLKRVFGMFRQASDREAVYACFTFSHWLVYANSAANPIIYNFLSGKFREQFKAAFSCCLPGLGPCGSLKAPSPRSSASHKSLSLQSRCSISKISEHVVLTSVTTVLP
OX1R antag-2: antagonists of human orexin 1 receptor (OX1R); AID 485270, 2010; inhibition, % at 6.6 µM; 330,000 tested, 1.8% active; OX1R-expressing cells, FRET antagonist read-out; Orexin/Hypocretin receptor type 1 (Homo sapiens), O43613; in the data active means inhibition mostly above about 38%, no sharp cut-off; inactive means mostly below about 40%;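 further: 0% = agonist challenge alone and 100% = reference antagonist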
* marks the source's active call; other numbers are inactive results; & = joins results of further samples. This is a subset, and most or all hits are left out here.

Values run as follows: OX1R antag-2, OX1R antag-1
> Cc1ccc(S(=O)(=O)N2CCCCC2)cc1NC(=O)c1ccc2c(c1)OCO2
 : 16, -19
> Cc1ccc(S(=O)(=O)NCC(C)n2cncn2)cc1C (stereo not given)
 : 15, 1
> CCOC(=O)C1(CCOc2ccccc2)CCN(Cc2cc(OC)c(O)cc2Cl)CC1
 : 10, -17
> Cc1ccccc1NC(=O)COc1ccc2c(c1)OC(C)(C)CC2=O
 : 7, -16
> O=C(NCC1CCCO1)c1cc(C(=O)C2CC2)c[nH]1 (stereo not given)
 : 6, -16
> COc1cc(SC)ccc1C(=O)OC1CCOC1=O (stereo not given)
 : 5, -17
> COc1ccc(OCCn2ccnc2C)cc1
 : 0, -2
> CCOc1ccc(N(C(=O)CNC(=O)c2ccco2)C(C(=O)NC2CCCC2)c2ccncc2)cc1 (stereo not given)
 : 17, -2
> CCn1ncc(Br)c1C(=O)Nc1cc(C)ccc1F
 : 22, -12
> NS(=O)(=O)c1ccc(C(=O)O)cc1
 : 7, -2
> O=[N+]([O-])c1ccc(N2CCCC2)cc1NCc1ccccc1
 : 24, -12
> CCCC(=O)N/N=C1\CS(=O)(=O)N(C)c2ccsc21
 : 61, -22
> O=c1c(C/C=C/c2ccccc2)c(O)ccn1Cc1cccc(Cl)c1
 : 15, -31
> CC1CCCCC1NC(=O)/C(C#N)=C/c1ccc(OCC(N)=O)cc1 (stereo not given)
 : 19, -9
> O=C(O)C1C2C=CC(C2)C1C(=O)NCc1ccco1 (stereo not given)
 : 18, -11

Arranged by molar mass (ascending): part of the list above
Values run as follows: OX1R antag-2, OX1R antag-1
> O=C(NCC1CCCO1)c1cc(C(=O)C2CC2)c[nH]1 (stereo not given)
 : 6, -16
> Cc1ccc(S(=O)(=O)NCC(C)n2cncn2)cc1C (stereo not given)
 : 15, 1
> CCCC(=O)N/N=C1\CS(=O)(=O)N(C)c2ccsc21
 : 61, -22
> Cc1ccccc1NC(=O)COc1ccc2c(c1)OC(C)(C)CC2=O
 : 7, -16
> Cc1ccc(S(=O)(=O)N2CCCCC2)cc1NC(=O)c1ccc2c(c1)OCO2
 : 16, -19
> CCOc1ccc(N(C(=O)CNC(=O)c2ccco2)C(C(=O)NC2CCCC2)c2ccncc2)cc1 (stereo not given)
 : 17, -2

Going on with the list:
Values run as follows: OX1R antag-2, OX1R antag-1
> COc1ccc(OC)c(CN2CCN(Cc3cc(=O)oc4cc(O)ccc34)CC2)c1
 : 21, -20
> CS(=O)(=O)N(CC(=O)NCc1ccncc1)c1ccc(F)c(Cl)c1
 : 23, -22
> COCCN(C(=O)CSc1nc(-c2ccccc2)cn1N)c1c(N)n(Cc2ccccc2)c(=O)[nH]c1=O
 : 5, -10
> O=C1N=C(N2CCCCC2)S/C1=C/C1=Cc2ccccc2OC1
 : 24, -21
> COc1ccc(Cc2nnc(NC(=O)CS(=O)(=O)c3ccc(C)cc3)s2)cc1OC
 : 14, -24
> Cc1cc(-c2nc3ccccc3c(=O)o2)ccc1[N+](=O)[O-]
 : 23, -10
> CCN1CCN(C(=O)C2CCN(c3nnc(C)c4c(C)n(-c5ccc(C)cc5)nc34)CC2)CC1
 : 14, -14
> O=C(CCN1CCCCC1)Nc1ccccc1
 : 7, -10
> O=C(NCc1cccs1)Nc1cccs1
 : 24, -17
> COc1ccc2c(c1)c(=O)oc1cc(OCC(=O)N3CCc4ccccc4C3)ccc12
 : 9, -13
> CCc1c(C)nc(N)nc1OCC(F)(F)C(F)F
 : 17, -11
> CCOc1cccc(/C(O)=C2/C(=O)C(=O)N(CCOC)C2c2ccncc2)c1 (stereo not given)
 : 18, -14
> CCOC(=O)C1(Cc2ccc(Cl)cc2)CCN(C(=O)c2cscn2)CC1
 : 7, -18
> CN1CCC[C@H]1c1cccnc1
 : 8&5, 3&-14
> Cn1c(=O)oc2cc(S(=O)(=O)NC3CCN(Cc4ccccc4)CC3)ccc21
 : -2, -23
> CCN(C(=O)CN1C(=O)S/C(=C\c2ccc(Cl)cc2)C1=O)C1CCS(=O)(=O)C1 (stereo not given)
 : 2, 3
> c1ccc(CCCOCCC2CO2)cc1 (stereo not given)
 : 8, -1
> O=S(=O)(c1ccccc1)C(/C=N\O)/C=C/c1ccccc1 (stereo not given)
 : 8, -17
> O=C(N=C1SC2CS(=O)(=O)CC2N1c1ccc(F)cc1)C1CCCCC1 (stereo not given)
 : 26, -22
> O=C(/C=N/O)NCCCN1CCOCC1
 : 4, -4
> O=S(=O)(NCc1cccs1)c1ccc(Cl)s1
 : 10, -11
> CCOC(=O)c1cc2sccc2n1CC(=O)N1c2ccccc2CC1C (stereo not given)
 : 31, -18
> O=C(O)c1cc(S(=O)(=O)O)ccc1O
 : 4, 0
> Cn1c(Cc2cccs2)nnc1SC/C=C/c1ccccc1
 : 19, -35
> COc1cccc(CN(CC2CCCO2)S(=O)(=O)c2ccc(-n3cnnn3)c(OC)c2)c1 (stereo not given)
 : 17, -29
> COc1ccc(CNCc2ccncc2)c(OC)c1
 : 2, -17
> COc1ccc2c(c1)c(C(=O)O)c(C)n2-c1ccccc1
 : 10, 11
> Clc1ccc(CSc2ncn[nH]2)cc1
 : 28, -11
> O=C(COc1ccc(Br)cc1)N/N=C1\SCC(=O)N1c1ccc(F)cc1
 : 8, -6
> Cc1sc2ncnc(SCC(=O)NC(C)C(C)C)c2c1C (stereo not given)
 : 12, -31
> CCC(C)NCCOc1ccccc1C (stereo not given)
 : -3, -6
> Cc1cccc(CCNC(=O)C2CCN(S(=O)(=O)c3cccc4nsnc34)CC2)c1
 : 27, -11
> CCc1noc(C)c1C(=O)Nc1ccc(C)c(S(=O)(=O)N2CCCCCC2)c1
 : 27, -6
> COc1ccc(C(=O)N2CCCc3ccccc32)cc1
 : 19, -8
> CN(Cc1ccccc1)C(=O)COC(=O)c1ccc2ccccc2n1
 : 14, -13
> COC(=O)c1c(NC(=O)C(=O)NCCCN2CCOCC2)sc2c1CCC2
 : 11, -30
> CCC(C)(C)n1nnnc1C(c1ccccc1OC)N1CCN(C(=O)c2ccco2)CC1 (stereo not given)
 : 22, -35
> CC(C)n1cnc2c(NCc3ccccc3)nc(NCc3ccccc3)nc21
 : 37, -17
> Cc1c(C(=O)O)oc2ccc(S(=O)(=O)NC3CCCCCCC3)cc12
 : 23, -8
> O=C(O)c1cc(-c2cc(C(=O)O)c3ccccc3n2)nc2ccccc12
 : 4, 5
> CCC(=O)NCCc1nc2ccccc2n1Cc1ccc(C)cc1
 : 17, -11
> O=C(CCl)N1CCN(S(=O)(=O)c2ccc3ccccc3c2)CC1
 : 10, -26
> O=C(C1CCC(CNc2c(N3CCOCC3)c(=O)c2=O)CC1)N1CCN(c2ccccc2)CC1 (stereo not given)
 : 24, -2
> O=C(COc1ccc(Cl)cc1Cl)Nc1ccccc1F
 : 11, -26
> O=C(COC(=O)c1cnccn1)c1cccc([N+](=O)[O-])c1
 : 13, -4
> Cc1ccc2occ(C(=O)c3ccco3)c(=O)c2c1
 : 2, -13
> COc1ccccc1N1C(=O)C2C3C=CC(C3)C2(C)C1=O (stereo not given)
 : -5, -4
> CCOc1ccc(Oc2ccc(Cl)cc2NC(=O)CCNC(C)=O)cc1
 : 23, -8
> COc1ccc(CC(=O)NCC2CCCN(Cc3ccccc3OC)C2)cc1 (stereo not given)
 : 14, -33
> O=C(COC(=O)CCc1nc2ccccc2n1-c1ccccc1)Nc1cccc(Cl)c1
 : 26, 6
> CN1C(=O)CC(Sc2ncccc2C(=O)O)C1=O (stereo not given)
 : 4, -8
> Cc1ccc(S(=O)(=O)CCC(=O)Nc2nccs2)cc1
 : 35, -17
> COc1cccc(CNC(=O)c2cccc(NC3=NC4CS(=O)(=O)CC4S3)c2)c1 (stereo not given)
 : 5, -12
> COC(=O)CCCC1=CC2=CC(=O)C(C)(OC(=O)c3cccs3)C(=O)C2=CN1c1ccc(OC)cc1 (stereo not given)
 : 35, -32
> COc1cc(OC)cc(C(=O)N[C@H](C(=O)OCC(N)=O)C(C)C)c1
 : 29, -10
> COc1ccc(C(=O)Nc2cccc3c2C(=O)NC3=O)cc1S(=O)(=O)N1CCOCC1
 : 37, -19
> CCN(CC)CCOC(=O)c1ccc(NC(=O)C2(c3ccccc3)CCCC2)cc1
 : 18, -15
> CCOC(=O)c1ccc2nc(C)c(CC)c(Cl)c2c1
 : 11, -26
> c1ccc(OCCSc2nc3ccccc3[nH]2)cc1
 : 30, -26
> Cc1cc([N+](=O)[O-])c(-c2ccc(/C=N/n3cnnc3)o2)cc1Cl
 : 12, -12

Later entries
Values run as follows: OX1R antag-2, OX1R antag-1
> C[C@H]1CCC[C@]2(O[C@@H](CCO)C[C@H](O)[C@H]2O)O1
 : 31, -5
> COc1cc(CCCN2C(=O)C(=O)NC[C@@H]2CC2CCCCC2)cc(OC)c1OC
 : 8, -17
> CC(C(=O)Nc1ccccc1)N(C)CCOc1ccccc1 (stereo not given)
 : 1, -9
> CCOc1ccc2c(c1)-c1c(ssc1=S)C(C)(C)N2C(=O)c1ccco1
 : 9, -36
> CCOC(=O)C(Cc1ccccc1)C(=O)Nc1ccc(NC(=O)C(Cc2ccccc2)C(=O)OCC)cc1 (stereo not given)
 : 3, -8
> O=C1CS/C(=N/N=C/c2ccncc2)N1
 : 1, -11
> CCS(=O)(=O)N1CCC(C(=O)NC2CCCCC2)CC1
 : 13, 1
> Cc1cccc(NC(=S)NC(C)(C)CC(C)(C)C)c1
 : 9, -25
> Cc1cc(NC(=O)c2cc(-c3cccnc3)nc3c(C)c(C)ccc23)no1
 : 7, -28
> Cc1c(NS(=O)(=O)c2cc(Br)cc3c2N(C(=O)C2CC2)CC3)c(=O)n(-c2ccccc2)n1C
 : 15, -5
> Cn1c(-c2csc(-c3cccc(C(F)(F)F)c3)n2)n[nH]c1=S
 : 8, -12
> CCN(CC)CCCNC(=O)c1nn(-c2ccc(OC)cc2OC)c(=O)c2ccccc12
 : 6, 3
> CCCCCCCNC(=O)C1(CC2CC(c3ccc(Cl)cc3)=NO2)CCN(C(=O)c2ccccc2)CC1 (stereo not given)
 : 32, -24
> CCC1CCCCN1C(=O)Cn1c(=O)n(CCC(=O)NCc2ccco2)c(=O)c2sccc21 (stereo not given)
 : -1, -14
> C=C(C)CNC(=S)NNC(=O)c1ccc(Br)cc1
 : 7, -6

5 compounds from above, arranged by the number in OX1R antag-2, smallest number first:
Values run as follows: OX1R antag-2, OX1R antag-1
> O=C1CS/C(=N/N=C/c2ccncc2)N1
 : 1, -11
> C=C(C)CNC(=S)NNC(=O)c1ccc(Br)cc1
 : 7, -6
> COc1cc(CCCN2C(=O)C(=O)NC[C@@H]2CC2CCCCC2)cc(OC)c1OC
 : 8, -17
> C[C@H]1CCC[C@]2(O[C@@H](CCO)C[C@H](O)[C@H]2O)O1
 : 31, -5
> CCCCCCCNC(=O)C1(CC2CC(c3ccc(Cl)cc3)=NO2)CCN(C(=O)c2ccccc2)CC1 (stereo not given)
 : 32, -24

New compounds follow
Values run as follows: OX1R antag-2, OX1R antag-1
> O=C1CSC(c2ccccc2[N+](=O)[O-])N1CCc1ccccc1 (stereo not given)
 : 3, -9
> CCN1CCN(S(=O)(=O)c2ccc(Cl)c(C(=O)N(C)Cc3cccc(Cl)c3Cl)c2)CC1
 : 12, -41
> CCCCN(C(=O)CSCc1c(C)noc1C)c1c(N)n(CCCC)c(=O)[nH]c1=O
 : 9, -24
> COc1cc(NC(=O)c2c3c(nc4ccccc24)CCC3)cc(OC)c1
 : 19, -13
> C=CCNC(=O)C1CCC(C(=O)NCC=C)CC1 (stereo not given)
 : 5, 4
> COc1ccc(CNC(=O)C2CCCN(C(=O)Nc3ccc(OC)cc3)C2)cc1 (stereo not given)
 : 14, -27
> CC(C)Cc1nc2oc3c(N4CCN(CCO)CC4)ncnc3c2c2c1CCCC2
 : 20, -26
> COC(=O)c1sccc1NC(=S)Nc1ccc(C)cc1
 : 8, -7
> CS(=O)(=O)N(CC(=O)N1CCN(c2cccc(Cl)c2)CC1)c1cccc(F)c1
 : 29, -17
> O=C1NCC(COc2ccc([N+](=O)[O-])cc2)O1 (stereo not given)
 : 20, -15
> CCOC(=O)C1CCN(c2c(NCCCN3CCCCC3)c(=O)c2=O)CC1
 : 3, -10
> O=C(CCc1ccccc1Cl)Nc1cccc(S(=O)(=O)N2CCCC2)c1
 : 22, -23
> COc1ccc(Oc2ncc(CN3CCN(c4ccccc4)CC3)s2)cc1
 : 3, -21
> COc1cc(C2C(C(=O)c3ccco3)=C(O)C(=O)N2CCc2ccccc2)ccc1O (stereo not given)
 : 24, -16
> CC(C)(C)NC(=O)CN1CCC(O)(c2ccc3c(c2)OCO3)CC1
 : 22, -11
> CC(NC(=O)c1sc2cc([N+](=O)[O-])ccc2c1Cl)C(C)(C)C (stereo not given)
 : 21, -11
> Cc1cccc(NC(=O)c2c([N+](=O)[O-])cnn2C)c1
 : -5, -4
> CN(CCNC(=O)CCCOc1cc(=O)n(C)c2ccccc12)Cc1ccccc1
 : 11, -30
> O=c1c2ccccc2c(-c2ccccc2)nn1-c1ccccc1
 : 14, -25
> Nc1ncnc2nc(Sc3ccc(Cl)cc3)[nH]c12
 : 6, 3
> CSc1ccc(CN2CCN(S(=O)(=O)Cc3ccccc3)CC2)cc1
 : 9, -13
> Cc1cc(C)[n+](-c2ccc(C(C)C)cc2)c2[nH]c(=O)[nH]c(=O)c12
 : 25, -10
> O=C(O)c1cc(-c2ccco2)[nH]n1
 : 12, -3
> O=C(COc1ccc(F)cc1)N(Cc1ccco1)C1CCS(=O)(=O)C1 (stereo not given)
 : -4, 5
> CC(NC(=O)Cn1cc(C(F)(F)F)cc(Cl)c1=O)c1ccccc1 (stereo not given)
 : 17, -18
